Bioassay records deposited in PubChem BioAssay by several laboratories.
Mtb growth – M. tuberculosis H37Rv growth inhibitors, H37Rv strain (AID 1626); M. tuberculosis H37Rv growth inhibition; higher % means a stronger effect; inhibition, % at 10 µM; hits with a dose series show IC50 in µM; actives 0.95% (n = 220,000);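 active means confirmed in a dose series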;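 further: bacteria incubated seven days before Alamar blue readout; 0% = bacteria only wells and 100% = bacteria with antibiotic wells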
Mtb betalactam – beta-lactam sensitization of Mtb H37Rv; actives 0.27% (n = 330,000); inhibition, % at 25 µM; AID 434955; M. tuberculosis H37Rv growth with meropenem, percent inhibition; hits of this screen are not shown here;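 active means about 74% or more and at least 40 points above the plate without the antibiotic, then above 30% in a dose series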;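 further: growth measured after seven days incubation then overnight dye step; 0% = bacteria only wells and 100% = bacteria with antibiotic; twin plates without the antibiotic show which effects depend on it; some results filed as inactive read as strong as hits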
YopH PTP inh – inhibitors of Yersinia enterocolitica YopH tyrosine phosphatase. fluorescence Ex485/Em525. inhibition, %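 (about 10 µM by stock and volumes)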. actives 0.16% (n = 140,000);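 active means inhibition of 50% or more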;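 further: controls were vehicle for no effect and minimum signal wells for full effect; inactives centre near -20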
Arbovirus anti – antivirals against arbovirus infection; AID 1251; actives 0.37% (n = 200,000); arbovirus infection cell-based antiviral screen; inhibition, % at 10 µM;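 active means inhibition from about 30%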;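 further: bluetongue infection of BSR cells; cell survival read as ATP light after 72 h; 0% = infected wells without compound and 100% = uninfected wells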
RecA intein inh – blocks M. tuberculosis RecA intein splicing; inhibition, %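 (about 9 µM by stock and volumes)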; cell-free RecA intein splicing, fluorescence; AID 2221; actives 0.75% (n = 290,000); in the data active means inhibition above about 30%;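 further: 0% = vehicle wells and 100% = reference inhibitor control wells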
Target sequence (P9WHJ3 whole entry, looked up): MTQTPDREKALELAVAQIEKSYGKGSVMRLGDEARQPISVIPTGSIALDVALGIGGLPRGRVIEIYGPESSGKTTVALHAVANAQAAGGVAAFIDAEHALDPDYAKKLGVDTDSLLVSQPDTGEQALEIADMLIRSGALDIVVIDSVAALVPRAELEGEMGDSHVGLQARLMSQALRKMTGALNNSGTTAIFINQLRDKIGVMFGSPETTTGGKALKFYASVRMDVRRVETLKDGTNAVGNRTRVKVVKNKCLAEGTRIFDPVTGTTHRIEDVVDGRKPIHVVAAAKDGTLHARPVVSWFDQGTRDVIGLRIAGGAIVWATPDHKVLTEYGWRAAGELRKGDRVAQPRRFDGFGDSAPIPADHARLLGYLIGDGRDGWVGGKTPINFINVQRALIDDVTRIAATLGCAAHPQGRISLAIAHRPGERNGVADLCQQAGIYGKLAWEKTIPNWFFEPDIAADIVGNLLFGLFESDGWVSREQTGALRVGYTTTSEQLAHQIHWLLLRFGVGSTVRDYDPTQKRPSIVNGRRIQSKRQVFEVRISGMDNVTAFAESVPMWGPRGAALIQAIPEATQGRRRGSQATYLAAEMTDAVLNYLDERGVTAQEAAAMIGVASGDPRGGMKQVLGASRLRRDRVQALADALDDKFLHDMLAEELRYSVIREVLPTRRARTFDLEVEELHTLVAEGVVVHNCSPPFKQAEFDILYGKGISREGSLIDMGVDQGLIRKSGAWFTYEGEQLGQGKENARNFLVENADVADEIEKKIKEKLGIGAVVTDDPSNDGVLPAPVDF
Arbovirus anti repeat – second read-out of Arbovirus anti, no call of its own (marks repeat the call); inhibition, %; measured here: 10K subset replicate screen; many hits read low in the repeat;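 first of two repeat runs on a subset; 0% = infected and 100% = uninfected wells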
The depositor's hits bear a star; / = no result given. The list is partial. The share of hits here may be higher or lower than overall.

SMILES	Mtb growth	Mtb betalactam	YopH PTP inh	Arbovirus anti	RecA intein inh	others
C=C1CCN([C@H](C(=O)NCc2ccc(Cl)cc2)C(C)C)S(=O)(=O)c2ccccc21	-9.4%	-10.8	/	/	/
COC(=O)CN(c1cccc(C)c1)S(=O)(=O)c1ccccc1	/	7.9	/	/	0.8
COC(=O)C(CCSC)NC(=O)c1cc2c(n(-c3ccccc3)c1=O)CCCC2=O (stereo unspecified)	4.1%	5.6	/	-2.9	-4.4
CCOC(=O)C1=C(C)N=C2SCCC(=O)N2C1c1cc(Br)ccc1OC (stereo unspecified)	1.7%	-5.1	-27.1	/	-0.5
Cc1ccc(C(=O)Nc2sc3c(c2C(=O)O)CCCCC3)o1	3.6%	0.8	-45.2	47.2*	-0.9
O=C(Nc1ccccc1)Nc1ccc(S(=O)(=O)N2CCCCC2)cc1	13.0%	-9.3	-0.9	-31.8	6.8
C/C(CC(=O)Nc1ccc(N(C)C)cc1)=N\NC(=O)c1ccccn1	39.5%	100.1	-39.2	-13.4	-9.8
N#CC1=C(c2ccc(-c3ccccc3)cc2)COC1=O	-0.6%	1.6	/	1.0	-1.2
CC(c1nnc(SCC(=O)Nc2ccc3[nH]c(=O)[nH]c3c2)n1Cc1ccccc1)N(C)C (stereo unspecified)	-2.1%	-12.3	-7.8	9.4	1.8
O=C1NC(c2ccc(Cl)cc2)=COc2ccccc21	0.1%	-0.9	/	-6.3	0.3
C=CCn1c(=O)c(C=Nc2cccnc2Cl)c(O)n(CCCC)c1=O	-2.8%	-0.5	-25.6	-0.8	/
CCC(C)(C(=O)NC1CCCC1)N(C(=O)CNC(=O)c1ccccc1)c1c(C)n(C)n(-c2ccccc2)c1=O (stereo unspecified)	-0.7%	-5.9	/	-1.8	0.5
Cc1cc(C(=O)O)ccc1NCc1cccnc1	/	-0.3	/	/	-2.8
O=C(CN1CCC(O)(c2ccccc2F)CC1)NCCc1c[nH]c2ccccc12	-2.3%	4.3	-23.4	15.1	0.5
Cn1c(SCC(=O)N/N=C/c2ccccn2)nnc1-c1ccccc1	-10.0%	4.7	/	/	-1.4

Molecules above with a COOH group:
SMILES	Mtb growth	Mtb betalactam	YopH PTP inh	Arbovirus anti	RecA intein inh	others
Cc1ccc(C(=O)Nc2sc3c(c2C(=O)O)CCCCC3)o1	3.6%	0.8	-45.2	47.2*	-0.9
Cc1cc(C(=O)O)ccc1NCc1cccnc1	/	-0.3	/	/	-2.8

3 compounds already listed, arranged by length of the SMILES, highest first.
SMILES	Mtb growth	Mtb betalactam	YopH PTP inh	Arbovirus anti	RecA intein inh	others
O=C(Nc1ccccc1)Nc1ccc(S(=O)(=O)N2CCCCC2)cc1	13.0%	-9.3	-0.9	-31.8	6.8
Cn1c(SCC(=O)N/N=C/c2ccccn2)nnc1-c1ccccc1	-10.0%	4.7	/	/	-1.4
Cc1ccc(C(=O)Nc2sc3c(c2C(=O)O)CCCCC3)o1	3.6%	0.8	-45.2	47.2*	-0.9

(list continues)
SMILES	Mtb growth	Mtb betalactam	YopH PTP inh	Arbovirus anti	RecA intein inh	others
COC(=O)c1c(NC(=O)C2CCCCC2)sc2c1CC(C)(C)NC2(C)C	/	-5.1	/	/	4.0
Cc1ccc(CNC(=O)CNC(=O)[C@@H]2Cc3ccccc3CN2)cc1	/	1.6	/	/	0.9
CCN1C(=O)[C@H]2[C@@H](c3ccc(-c4cccc(Cl)c4)cc3)N[C@@](Cc3ccccc3)(C(=O)OC)[C@H]2C1=O	/	-4.0	/	/	9.7
O=[N+]([O-])c1ccc(Cl)c2c1C1C=CCC1C(c1ccccn1)N2 (stereo unspecified)	2.9%	4.9	/	-1.9	20.5
Cc1ccc(N=CC2=C(O)CC(c3ccc(Cl)cc3)CC2=O)cc1 (stereo unspecified)	0.8%	1.2	-24.6	-13.5	-2.5
Nc1nnc(SCC(=O)Nc2ccc3c(c2)OCCO3)s1	-1.2%	2.4	-5.7	5.3	-0.1
COc1ccccc1C(=O)COC(=O)c1c(-c2ccccc2)noc1C	/	-9.4	/	/	3.3
O=C(Nc1ccc(S(=O)(=O)N2CCCCCC2)cc1)C1CCCO1 (stereo unspecified)	1.2%	-8.3	-7.6	1.9	-0.7
Cc1ccc2nc(N/N=C/c3ccco3)cc(C)c2c1	15.0%	51.3	/	11.2	-1.4
CC(C)N(Cc1c(O)ccc2c(=O)c(-c3ccc(Cl)cc3)coc12)C(C)C	/	4.5	/	/	5.0
C=CCn1c(SCC(=O)Nc2sccc2C(N)=O)nc2ccccc2c1=O	-8.4%	11.0	-15.9	-6.3	-2.6
CC(C)(CNC(=O)c1cccc(S(=O)(=O)Nc2ccc(Br)cc2)c1)N1CCOCC1	/	-10.8	/	/	1.9
CCCCNC(=O)Nc1ccccc1Br	5.9%	0.8	-28.9	-2.8	0.4
NC(N)=Nc1nc(-c2ccccc2)c2ccccc2n1	13.7%	90.1	/	-26.5	1.6
O=C(Nc1cccc2ccccc12)c1ccc([N+](=O)[O-])cc1	/	9.7	/	/	-0.3
CCCS(=O)(=O)c1c(S(=O)(=O)CCC)c2c(C)cccn2c1C(=O)N/N=C/c1cc(O)cc(O)c1	/	8.4	/	-14.6	14.7
O=C(Nc1ccc2ncccc2c1)c1cc(Cl)ccc1Cl	15.3%	26.8	/	0.7	1.3
COc1ccccc1Oc1coc2c(CN3CCOCC3)c(O)ccc2c1=O	-6.2%	0.7	/	/	-9.0
Cc1cc(C)c(NC(=O)CSc2nnc(CNC(=O)c3ccco3)o2)c(C)c1	/	-5.0	/	/	-2.7
COc1cccc(-c2ccc(NC(=O)C3CCCN(Cc4ccc(CO)o4)C3)cc2)c1 (stereo unspecified)	/	-6.7	/	/	5.9
CCOn1c(=O)c(-c2ccc(Br)cc2)[n+]([O-])c2ccccc21	/	0.2	/	/	-2.3
Cc1cc(C(=O)CCC(=O)N(C)CC(=O)Nc2c(Cl)cccc2Cl)c(C)s1	/	-14.9	/	/	-3.0
O=C(CSc1nnc(-c2ccco2)c(-c2ccco2)n1)Nc1ccccc1	-1.8%	5.2	-24.7	9.6	18.5
CCOC(=O)c1c(C)[nH]c(C(=O)O)c1C	-4.7%	-1.1	-15.5	6.1	-0.3
O=C(CC1CC2CCC1C2)NCc1cccs1 (stereo unspecified)	-0.7%	-8.1	2.6	1.6	1.0
CCCCCC1CC(CC(C)C(=O)Nc2nncs2)C(=O)O1 (stereo unspecified)	/	-3.4	41.1	-0.9	3.9
CCCCN(CCCC)c1cn[nH]c(=O)c1Cl	-9.5%	-7.4	31.9	9.3	-1.1
Cc1ccc(NC(=O)/C(=C\c2ccc([N+](=O)[O-])cc2)NC(=O)c2ccccc2)cc1	-1.4%	65.1	0.6	-1.4	-2.3
Nc1ncnc2c1ncn2[C@H]1C[C@H](O)[C@@H](CO)O1	6.9%	-2.1	-10.0	3.6	/
O=C(N/N=C\c1ccc(Cl)cc1Cl)c1sccc1-n1cccc1	4.3%	-9.5	-36.3	1.5	7.7
O=c1ccn([C@@H]2O[C@H](CO)[C@@H](O)[C@H]2O)c(=O)[nH]1	-3.8%	-1.1	-37.0	3.9	-0.5
Cc1cccc(N2C(=O)c3cccc4c(N)ccc(c34)C2=O)c1	/	-0.8	/	/	-55.7
Cc1c(Nc2c3c(c(C#N)c4nc5ccccc5n24)CCC3)c(=O)n(-c2ccccc2)n1C	-8.0%	/	-57.8	0.4	/
CCCn1nnnc1SCC(=O)Nc1cccc(NC(=O)c2ccco2)c1	-3.1%	3.5	5.8	-1.1	-3.8
CN(C)c1cccc(/C=C(\C#N)c2ccccc2)c1	2.8%	10.9	/	/	-10.2
COc1ccc(OC)c(CNc2ccc(F)c(Cl)c2)c1	6.9%	9.0	-0.7	-0.2	11.2
NS(=O)(=O)c1ccc(N/C=C\C(=O)c2ccc3ccccc3c2)cc1	-2.0%	2.8	-14.5	-12.5	5.8
CC(=O)Nc1cc(C)c(S(C)(=O)=O)c(C)c1	-2.1%	1.3	-4.6	-2.0	-0.3
C(#CC1CCCCC1)c1ccc2c(c1)COc1c3ccccc3nn1-2	-8.6%	41.8	/	/	-2.9
O=C(Nc1ccc(Cl)c(S(=O)(=O)N2CCOCC2)c1)c1ccccc1-c1ccc(C(F)(F)F)cc1	-4.8%	-1.2	-15.1	-5.8	5.5
Cc1nc(-n2ncc(C#N)c2N)c2c3c(sc2n1)CCC3	-5.8%	1.0	-5.6	-18.1	-6.9
Cc1ccc(S(=O)(=O)N(C)C)cc1NC(=O)CSc1nc2ccccc2[nH]1	2.2%	7.5	-29.2	-2.0	2.6
O=C1CC2(CCN(C(=O)c3cccc(F)c3)CC2)Oc2ccccc21	/	-15.4	/	/	2.1
O=C(NCc1ccccc1)c1cc(S(=O)(=O)N2CCC3(CC2)OCCO3)ccc1F	3.9%	-13.5	-8.6	3.2	-3.9
O=C1c2cccnc2C(O)N1Cc1ccco1 (stereo unspecified)	/	0.3	-18.3	-2.0	0.1
C=CCN1C(=O)/C(=C2/Sc3ccc(OC)cc3N2C)SC1=Nc1cccc(O)c1	5.5%	0.3	/	-13.1	-6.9
COc1ccccc1NC(=O)COc1ccc(C(=O)OCC(=O)N(C(C)C)C(C)C)cc1OC	-5.8%	9.1	-10.1	1.1	7.8
CSc1nnc2c3c4c(sc3c(=O)n(-c3ccccc3)n12)CC(C)(C)OC4	-3.0%	1.3	-16.5	1.4	3.1
O=C(CN1CCN(Cc2ccccc2Cl)CC1)N/N=C/c1ccco1	-6.2%	-1.1	/	/	/
Cc1ccccc1C(=O)NCCSc1ccccc1	13.2%	-2.8	-7.8	-3.4	0.0
CCN(CC)CCN1C(=O)C(=O)/C(=C(/O)c2c(C)[nH]c(C(=O)OC)c2C)C1c1ccccc1OC (stereo unspecified)	-7.1%	-2.5	-12.8	-20.7	1.2
COc1ccc([N+](=O)[O-])cc1NC(=O)CC1SC(=Nc2cccc(C)c2C)N(/N=C(\C)c2ccc(C)cc2)C1=O (stereo unspecified)	1.6%	-4.7	/	-3.4	0.9
COC(=O)c1cc(-c2ccccc2)c2c(=O)n(C)c(=O)n(C)c2n1	1.5%	/	/	2.5	/
O=C1CC2C(CC(OC(=O)c3ccc(-c4ccccc4)cc3)C2CO)O1 (stereo unspecified)	-3.4%	-0.9	-0.2	-1.5	1.1
O=C(Cn1ncn2c(cc3cc(F)ccc32)c1=O)N1CCC2(CC1)OCCO2	/	1.6	/	/	-1.3
CCOC(=O)CNC(=O)N1CCc2ccc(NC(=O)c3ccccc3Cl)cc2C1	/	3.7	/	/	0.5
O=C(NCCCCNC(=O)c1ccccc1F)c1ccccc1F	/	-2.9	/	/	-0.3
COC(=O)[C@@H]1C[C@@H]2CC[C@@H](O)C[C@@H]2N1Cc1ccc(Cl)cc1	-2.6%	-2.7	/	/	0.8
COc1ccc(Cl)cc1NC(=O)CN(C)C(=O)c1cn(-c2ccccc2)nc1-c1cccnc1	/	-2.2	/	/	-0.6
CCN(CC(=O)Nc1c(F)cccc1F)C(=O)c1ccccc1F	/	1.0	/	/	0.6

Following part:
SMILES	Mtb growth	Mtb betalactam	YopH PTP inh	Arbovirus anti	RecA intein inh	others
CCOC(=O)c1cc(NC(=O)Nc2nc3ccccc3s2)c(C)nc1C	0.9%	0.8	-4.4	-3.1	2.3
O=C(Nc1ccc(S(=O)(=O)N2CCN(c3ccccc3)CC2)cc1)c1cccs1	-4.6%	-7.3	-13.6	-2.1	0.3
O=C(c1c(Cl)nc2sccn12)N1CCN(c2cccc(Cl)c2)CC1	1.4%	-3.2	-34.0	-6.0	2.7	Arbovirus anti repeat=-4.3
CCC(C)NC(=O)c1csc2c1CCCCC2 (stereo unspecified)	3.9%	8.0	-26.6	10.0	-2.7
CC(=O)NC(C)C(c1cccs1)N1CCN(c2ccccc2)CC1 (stereo unspecified)	5.0%	-3.8	-36.1	6.2	1.0
CCOc1ccc(-c2c(C(=O)N/N=C/c3ccc(O)cc3)nnn2-c2nonc2N)cc1	1.2%	3.2	/	/	-3.3
O=C(CCC(=O)Nc1nnc(C2CCCCC2)s1)Nc1ccccc1	/	0.2	/	/	-1.1
CC(C)C[C@H](NC(=O)c1[nH]cnc1C(=O)N[C@@H](Cc1ccccc1)C(=O)OCc1ccccc1)C(=O)OCc1ccccc1	/	-10.4	/	/	-0.2
Cc1ccc(Cn2nnc3c(=O)[nH]c(C4CCN(S(=O)(=O)c5ccc(F)cc5)CC4)nc32)cc1	/	47.8	-24.9	-14.2	4.0
NC(=O)C1=C[C@H](c2csc3ccccc23)C[C@H](OCCCCO)O1	3.0%	-5.1	/	3.3	2.6
CCOc1ccccc1NC(=S)NCc1ccco1	-3.2%	4.8	7.9	17.7	0.0
CC(=O)NCCNC(=O)C1CCC(CNc2nc(=S)[nH]c3ccccc23)CC1 (stereo unspecified)	/	-6.6	/	/	-0.5
Cn1nnc(NC(=O)c2ccc(Br)o2)n1	/	-2.8	/	/	-0.2
CN(CC(=O)Nc1ccc(Cl)cc1)C(=O)c1cccc(S(=O)(=O)NCc2ccccc2)c1	/	-1.5	/	/	-1.4
